RN4220 kill – kills Staphylococcus aureus RN4220 | inhibition, % (no concentration beside the values) | hit rate 0.33% among 330,000 | S. aureus RN4220 growth, OD600, 16 h | AID 1259311;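 active = z-score of -3 or lower and OD600 up to 0.18 on both plates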;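 note: plate controls were untreated cells for no effect and reference antibiotic for full effect; stock transfer was 100 nL into about 80 µL; one replicate is shown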
BJeLR lethal – kills HRASV12-expressing BJeLR cells. BJeLR (HRASV12) viability, CellTiter-Glo ATP luminescence, 48 h; reference of the scale not given here. inhibition, % (test concentration not listed). hit rate 0.17% among 300,000. AID 1554;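 active = replicate mean above 50%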;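 note: 50 nL library stock added to about 25 µL; numbers are from one replicate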
PrP UTR inh – inhibition of PrP 5' UTR reporter expression | hit rate 0.35% among 340,000 | cell-based PrP 5' UTR mRNA reporter, plate reader | inhibition, % (no concentration beside the values);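 active = every replicate at 50% or more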;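 note: 0 = median of the neutral control wells; tested in H4 reporter cells; numbers are from one replicate; inactives centre near -14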
Mtb hypoxia rep – inhibitors of hypoxia-regulated fluorescent reporter in Mycobacterium tuberculosis; fluorescence inhibition, % (no concentration beside the values); M. tuberculosis hypoxia-regulated fluorescent reporter, fluorescence; hit rate 0.1% among 300,000;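 active = 35 to 45% if threefold the growth effect, above 45% if 1.5-fold the growth effect; inactive = the rest, general growth blockers included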;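 note: wells of about 50 µL received 100 nL stock; 0% = vehicle wells and 100% = reference inhibitor wells; whole bacteria with a GFP reporter of the hypoxia response; strong numbers were not always called active; many hits fall short of the cut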
Bead autofluor – compound fluorescence in toxin protease inhibitor counterscreen. fluorescence intensity (test concentration not listed). hit rate 3.1% among 360,000. compound autofluorescence counterscreen, microsphere flow cytometry; active compounds read high;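 active = at least 3 SD above the mean of all compounds, about 16000 in these data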;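 note: 100 nL of 1 mM stock went into each well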
ugtP null kill – kills S. aureus RN4220 lacking UgtP; growth inhibition, % (concentration not given with the values); hit rate 0.54% among 330,000; AID 1259309; S. aureus RN4220 ugtP deletion, OD600 growth, 16 h; some inactives read as strong as hits;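 active = z-score under -3 and OD600 up to 0.15 on both plates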;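 note: plate controls were untreated wells for no effect and antibiotic for full effect; wells of about 80 µL received 100 nL stock; the first replicate is given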
Mtb hypoxia rep growth – recorded beside Mtb hypoxia rep, whose call it bears; growth inhibition, %; measured here: M. tuberculosis growth (absorbance);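 0% = vehicle and 100% = reference antibiotic; read after six days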
* marks the source's active call; other numbers are inactive results; / = no result given.

Values run as follows: RN4220 kill	BJeLR lethal	PrP UTR inh	Mtb hypoxia rep	Mtb hypoxia rep growth	Bead autofluor	ugtP null kill
O=c1c2cc(Cl)ccc2[nH]c(=S)n1Cc1cccs1
 : -12	0	-15	4	0	7152	-15
CCC(=O)N1CCN(c2ccc(NC(=O)c3ccco3)cc2)CC1
 : 2.4	2	-15	/	/	4822	5
CCN1CCN(c2nc(-c3ccccn3)nc3ccccc23)CC1
 : 1.4	0	-10	5	8	24768*	-5
COc1ccc(C(O)(C(C)C)C(CN2CCOCC2)c2ccccc2)cc1 (configuration not stated)
 : 9.3	6	-9	6	-1	3918	4
COc1ccc(CS(=O)(=O)CC(C)(O)c2ccc(Cl)cc2)cc1 (configuration not stated)
 : 0.8	1	-19	3	-4	3003	4
Cc1cc(Cl)c(S(=O)(=O)NCC2CCCO2)cc1OCC(N)=O (configuration not stated)
 : 4.4	/	-6	-6	14	3084	1
COC(=O)Nc1ccc(OCc2ccccc2)cc1
 : 0.1	12	-79	-10	4	4259	-6
Cc1noc(C)c1C(=O)NNc1cc(Cl)ccc1Cl
 : -4.7	2	-8	10	-1	/	-3
O=C1C(=O)N(Cc2ccncc2)C(c2ccccc2F)/C1=C(\O)c1ccc2c(c1)OCCO2 (configuration not stated)
 : 0.0	-2	-8	-5	5	5358	1
c1ccc(C2CC(c3ccccc3)C(c3ccccc3)N2)cc1 (configuration not stated)
 : 1.2	1	-30	12	4	4208	14
COc1ccc2c(c1)CCc1cc(C(=O)O)sc1-2
 : -4.8	14	-16	13	-3	4971	62
Cc1cc(N2CCN(c3ccccn3)CC2)n2c(nc3ccccc32)c1C#N
 : -0.6	-1	-11	-96	-18	4524	3
O=C(Nc1ccccc1N1CCOCC1)c1ccc2c(c1)OCO2
 : 4.9	4	-5	4	4	4470	8
CCOc1ccc(S(=O)(=O)NC(Cc2cnc[nH]2)C(=O)O)cc1 (configuration not stated)
 : 9.1	-9	-14	4	-2	2959	4
Cc1cc(=O)[nH]c(N/N=C/c2ccccn2)n1
 : /	24	15	/	/	2408	/

Brought forward from above: two compounds, then new ones.
Values run as follows: RN4220 kill	BJeLR lethal	PrP UTR inh	Mtb hypoxia rep	Mtb hypoxia rep growth	Bead autofluor	ugtP null kill
CCOc1ccc(S(=O)(=O)NC(Cc2cnc[nH]2)C(=O)O)cc1 (configuration not stated)
 : 9.1	-9	-14	4	-2	2959	4
Cc1cc(=O)[nH]c(N/N=C/c2ccccn2)n1
 : /	24	15	/	/	2408	/
COc1ccccc1C1=CC(=O)CC(c2ccc(Cl)cc2)C1 (configuration not stated)
 : -0.8	/	/	9	3	/	1
CCc1ccc2oc(C(=O)Nc3nonc3CC)c(C)c2c1
 : 5.6	5	-70	2	3	5536	-5
CCOC(=O)c1c(NC(=O)CC2SC(N)=NC2=O)sc2c1CCC(C)C2 (configuration not stated)
 : -5.6	5	1	4	3	10703	2
C=CCn1c(O)c(C=NCCN(C)C)c(=O)[nH]c1=O
 : 1.7	-4	9	6	4	2212	-2
O=C(c1cc(C(=O)c2ccco2)cc(C(=O)c2ccco2)c1)c1ccco1
 : -2.1	-4	2	-17	-22	2439	-5
CN1C(=O)/C(=C/c2ccccc2Cl)Sc2ccc(C(=O)NCc3cccnc3)cc21
 : 16	-3	-3	13	4	4908	30
CCCCNC(=O)c1[nH]c(C)c(C(C)=O)c1C
 : 0.1	2	-55	0	6	2304	11
O=C(Nc1ccc(O)cc1)N1CCOCC1
 : 3.3	-2	-33	-3	4	3820	8
COc1cccc(OCc2cc(C(=O)N(Cc3ccccc3)CC3CC3)no2)c1
 : 3.5	3	-20	3	3	5570	14
COC(=O)c1nn(-c2ccccc2)c(Cl)c1C=NO
 : 3.1	/	/	14	4	/	3
CCOc1ccccc1NC(=O)CCCCCN1C(=O)[C@@H]2Cc3ccccc3CN2C1=O
 : -0.2	-1	-3	1	-4	6084	1
CCCCSc1nc2sc3c(c2c(=O)n1-c1ccccc1)CCN(C)C3
 : -3.3	8	2	19	6	4210	20
O=C(CCc1nc2ccccc2c(=O)[nH]1)NC1CCN(Cc2ccccc2)CC1
 : 4.5	-3	-25	6	2	9216	10
CC(=O)Cn1c(=O)c2c(nc3n2CCCN3Cc2ccccc2)n(C)c1=O
 : 3.2	-9	-8	7	-6	5755	6
Cn1c(O)c(C=NCc2ccco2)c(=O)n(C)c1=O
 : 2.4	1	-10	-1	6	9129	7

(list continues)
Values run as follows: RN4220 kill	BJeLR lethal	PrP UTR inh	Mtb hypoxia rep	Mtb hypoxia rep growth	Bead autofluor	ugtP null kill
O=C(NC(=S)Nc1ncccn1)c1ccc(Cl)cc1Cl
 : 3.7	-29	-76	8	-1	4068	3
COc1ccc(S(=O)(=O)N2CCN(C(=O)N(C)C)C2C)cc1 (configuration not stated)
 : -0.4	10	-16	9	-9	4191	6
CCOc1ccc(C2CC(c3ccc(CC)cc3)Nc3nc(N)nn32)cc1 (configuration not stated)
 : 4.6	-10	-27	/	/	6119	-4
O=C(N/N=C/c1cccnc1)c1cccc(NC(=O)c2ccc(Cl)cc2)c1
 : /	-5	-6	/	/	5874	/
NC1=NC2CS(=O)(=O)CC2S1 (configuration not stated)
 : /	7	9	/	/	2105	/
COCCNC(=O)C1CC2Cn3c(nc4cc5ccccc5cc43)C2N1C (configuration not stated)
 : 4.6	6	-25	2	1	3785	6
COC(=O)c1cn(C(=O)c2cc(OC)c(OC)c(OC)c2)c2ccccc12
 : 1.9	-3	-21	0	-3	3309	4
CCN(CC)c1ccc(NC(=O)c2ccc3c(c2)c(C)c(C)n3C)cc1
 : 4.2	-6	7	/	/	3375	8
CN(C)P(=O)(N(C)C)N1CC1
 : 0.3	/	-12	4	6	3623	-1
COc1ccc(Br)c2oc(SC)cc(=O)c12
 : 0.1	5	-8	0	4	3888	-3
COc1ccc(C2c3[nH]c4ccccc4c3C[C@H]3C(=O)N(c4ccccc4C(=O)N4CCC[C@H]4C(=O)O)C(=O)N23)cc1 (some centres not stated)
 : 3.8	4	-14	/	/	4370	-11
Cc1ccc(O)c(CNc2nc3ccccc3n2C(C)C)c1
 : -1.0	12	-18	/	/	3526	8
COc1ccccc1NS(=O)(=O)c1ccc(Cl)c(NC(=O)C(C)N2C(=O)c3ccccc3C2=O)c1 (configuration not stated)
 : 10	4	-18	14	4	8844	5
Cc1cc2c(ncn2C(C)C)c(NS(=O)(=O)c2ccc(F)cc2)c1C
 : 7.6	2	-10	1	-4	2553	1
Cc1cc(=O)n2nc(N3CCCC(C(=O)NCc4ccc(Cl)cc4)C3)sc2n1 (configuration not stated)
 : 1.6	-1	-22	-3	7	4768	2

Next structures
Values run as follows: RN4220 kill	BJeLR lethal	PrP UTR inh	Mtb hypoxia rep	Mtb hypoxia rep growth	Bead autofluor	ugtP null kill
COc1cc(C(C)=O)ccc1Oc1ncnc2c1cnn2-c1ccc(C)c(C)c1
 : 1.8	14	-22	0	5	8836	19
CC(C)(C)C(=O)NC(n1cnc2c(N3CCOCC3)ncnc21)C(Cl)(Cl)Cl (configuration not stated)
 : 0.7	10	-13	1	1	4177	9
COC(=O)CCCC(=O)N1CCCC(CCC(=O)NCc2ccc(F)c(F)c2)C1 (configuration not stated)
 : 3.1	0	-10	1	0	2448	4
CC(=O)N1CCc2[nH]c3ccccc3c2C1
 : -2.6	-7	-12	-1	0	17082*	-4
Cc1nc(NC(=O)c2ccccc2)sc1C1(C)CC(c2ccc(OC(F)(F)F)cc2)=NO1 (configuration not stated)
 : 5.0	-2	/	1	-6	/	13
CCC1CN(C(=O)N2CCC(C(=O)Nc3ccccc3OC)CC2)c2ccccc2O1 (configuration not stated)
 : 1.8	4	-18	-4	-4	6059	-3
CN(CC(=O)Nc1cccc(F)c1)C(=O)c1ccccc1Cc1ccccc1
 : -2.0	3	-10	1	4	6160	-5
O=C(CSc1ccc(-c2ccccn2)nn1)N1CCCCC1
 : /	-11	-36	/	/	3861	/
CC(=O)c1cc(C#N)c(N2CCN(C)CC2)nc1C
 : 3.6	-16	-11	5	8	3486	-3
COc1ccc(Oc2cn[nH]c2-c2ccc(OC)cc2O)cc1
 : -10	-5	-67	5	4	3654	14
CCOC(=O)c1oc2ccccc2c1NC(=O)c1ccco1
 : 4.3	-3	-23	-1	-11	/	6
CCOc1ncccc1C(=O)OCc1c(F)cccc1Cl
 : 6.0	-6	5	5	7	3569	15
NC(=NO)c1nc(N2CCCCC2)nc(N2CCCCC2)n1
 : -0.5	/	/	15	-12	/	4
O=C(O)CN(c1ccccn1)S(=O)(=O)c1ccc(Cl)cc1
 : -1.4	-1	-8	/	/	4615	-2
Nc1cccnc1-n1nc(C(F)(F)F)cc1C(F)(F)F
 : 10	-8	-4	-5	5	4186	5

Next part:
Values run as follows: RN4220 kill	BJeLR lethal	PrP UTR inh	Mtb hypoxia rep	Mtb hypoxia rep growth	Bead autofluor	ugtP null kill
CCOC(=O)C1CCN(C(=O)CN(c2ccc(Oc3ccccc3)cc2)S(C)(=O)=O)CC1
 : 2.7	3	-14	15	-2	3201	-69
CCOC(=O)N1CCN(C(=O)COc2cccc3c2CCN(Cc2ccccc2C)C3=O)CC1
 : -3.9	-5	-12	3	9	2510	-3
CCOc1ccc(NC(=O)C/C(N)=N/O)cc1
 : 7.3	8	-16	0	-8	7374	16
CC(=NNC(=O)c1ccc2nc[nH]c2c1)c1cccs1
 : -0.5	/	/	8	0	/	1
COc1ccc(OCCOCCN2CCc3ccccc3C2)cc1
 : 5.2	7	-32	15	7	9845	4
Cc1ccc2nc3c(cc(C#N)c(=N)n3Cc3cccnc3)c(=O)n2c1
 : 3.7	-3	/	9	1	/	2
OCCOCCO
 : 1.1	/	-11	/	/	4586	4
CC(OC(=O)c1cccc(NS(C)(=O)=O)c1)C(=O)Nc1ccc(N2CCOCC2)cc1 (configuration not stated)
 : 4.4	-9	-8	-3	-2	4401	0
CCn1cc(CN2CCCC(C(=O)Nc3ccc(-c4cscn4)cc3)C2)cn1 (configuration not stated)
 : -2.5	11	-4	13	-23	6013	1
CCc1ccc(N2C(=O)NC(=O)C(Cc3ccc(OC)cc3OC)C2=O)cc1 (configuration not stated)
 : 4.2	7	-5	/	/	4601	-2
CC1=C(C(=O)O)N2C(=O)C(NC(=O)CCCC(=O)O)C2SC1 (configuration not stated)
 : 3.6	-2	-23	-12	-7	4516	10
CCc1c(C2(O)CCCCC2)[nH]c2cc(C(F)(F)F)ccc12
 : /	0	-22	/	/	3498	/
COC(=O)CCC(=O)Nc1sc(Cc2ccccc2)c(C)c1C(N)=O
 : -2.2	1	-9	/	/	2418	0
COc1ccc(CNc2ncc(-c3ccccc3)n2C)cc1
 : 0.5	-4	-13	0	-1	3144	4
C/C(Cc1ccccc1)=N\NC(=O)c1cccnc1
 : /	2	-20	/	/	2087	/

Complete entries, looked up by structure:
CCc1ccc(N2C(=O)NC(=O)C(Cc3ccc(OC)cc3OC)C2=O)cc1 (configuration not stated) reads RN4220 kill: 4.2; BJeLR lethal: 7; PrP UTR inh: -5; Mtb hypoxia rep: /; Mtb hypoxia rep growth: /; Bead autofluor: 4601; ugtP null kill: -2
OCCOCCO reads RN4220 kill: 1.1; BJeLR lethal: /; PrP UTR inh: -11; Mtb hypoxia rep: /; Mtb hypoxia rep growth: /; Bead autofluor: 4586; ugtP null kill: 4

The main list resumes with the four entries that preceded the break.
Values run as follows: RN4220 kill	BJeLR lethal	PrP UTR inh	Mtb hypoxia rep	Mtb hypoxia rep growth	Bead autofluor	ugtP null kill
CCc1c(C2(O)CCCCC2)[nH]c2cc(C(F)(F)F)ccc12
 : /	0	-22	/	/	3498	/
COC(=O)CCC(=O)Nc1sc(Cc2ccccc2)c(C)c1C(N)=O
 : -2.2	1	-9	/	/	2418	0
COc1ccc(CNc2ncc(-c3ccccc3)n2C)cc1
 : 0.5	-4	-13	0	-1	3144	4
C/C(Cc1ccccc1)=N\NC(=O)c1cccnc1
 : /	2	-20	/	/	2087	/
CCc1ccc(OC(=O)c2cccnc2)cc1
 : 1.2	-11	-9	11	0	3031	5
COC(=O)c1ccc(CNC(=O)C2CCC(=O)N(CCc3ccccc3)C2)cc1 (configuration not stated)
 : 1.5	-6	-8	4	6	7818	3
Cc1ccc(NC(=O)c2oc3ccccc3c2C)c([N+](=O)[O-])c1
 : 5.8	3	-55	9	-4	4303	-3
COc1ccc(NC(=O)CSC2=NN3CCCC(=O)N=C3S2)c(OC)c1
 : -0.4	2	10	-9	-7	4012	-3
NCC(c1ccccc1)c1c[nH]c2ccccc12 (configuration not stated)
 : -1.4	10	-14	14	11	4419	-15
O=C(COC(=O)Cc1ccccc1)Nc1cccnc1Cl
 : 6.3	10	-6	-10	6	3929	4

Compound activity (PubChem BioAssay)
